# StopGo reporter: High Throughput Screening for Foot and Mouth Disease Virus Antivirals; Potency, µM (doses to about 57.9 µM), inactives show top-dose signal change, negative = less light; actives 1.2% (n = 410,000); human cells with a luciferase reporter of 2A StopGo recoding; control for the full effect not named in the record; active = well fitted falling curve with a large enough effect; inconclusive = small, poorly fitted or top-dose-only effect; inactive = no such curve, though single readings can be large or run the other way; tested in HEK293T cells; note: % is set by controls: 0 for no effect and ±100 for the full control effect; nearly all actives have a fitted effect of over 45% in size; luciferase light after 4 h
# SARS PLP yeast: qHTS of Yeast-based Assay for SARS-CoV PLP; S. cerevisiae expressing SARS-CoV PLpro, growth rescue; control for the full effect not named in the record; Potency, µM (top dose mostly 32.9 µM), inactives show top-dose activity, positive = growth rescue; actives 0.19% (n = 330,000); AID 485353, 2010; active means well fitted rising curve with a large enough effect; inconclusive means small, poorly fitted or top-dose-only effect; inactive means no such curve, though single readings can be large or run the other way; note: 0% is about no effect; nearly all actives have a fitted effect of over 55% in size; growth read by luminescence after 48 h
# LASV entry inh: qHTS for Inhibitors of binding or entry into cells for Lassa Virus; Lassa virus pseudotype entry inhibition, cell reporter; control for the full effect not named in the record; Potency, µM (series often up to 37.9 µM), for the others: at the top dose activity change, negative = inhibition, hits mostly inhibitors; actives 1.2% (n = 300,000); active means well fitted inhibition curve with a large enough effect; inconclusive means small, poorly fitted or top-dose-only effect, or effect the other way; inactive means flat fitted curve, though single readings scatter; tested in HEK293 cells; note: % is set by controls: 0 for no effect and ±100 for the full control effect; nearly all actives have a fitted effect of over 50% in size; luciferase read-out
# Cruzain noTriton: qHTS Assay for Promiscuous and Specific Inhibitors of Cruzain (without detergent). Cruzipain (Trypanosoma cruzi), P25779. purified cruzain, Z-FR-AMC fluorescence, no detergent. Potency, µM, inactives show max response, negative = inhibition, actives largely listed as inhibitors. actives 2.3% (n = 200,000);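 note: plate controls were enzyme without inhibitor for no effect and buffer without enzyme for full effect; nearly all actives have a fitted effect of over 40% in size; top concentration of the series not given in the record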
# Target sequence (P25779 123-467 limits assumed): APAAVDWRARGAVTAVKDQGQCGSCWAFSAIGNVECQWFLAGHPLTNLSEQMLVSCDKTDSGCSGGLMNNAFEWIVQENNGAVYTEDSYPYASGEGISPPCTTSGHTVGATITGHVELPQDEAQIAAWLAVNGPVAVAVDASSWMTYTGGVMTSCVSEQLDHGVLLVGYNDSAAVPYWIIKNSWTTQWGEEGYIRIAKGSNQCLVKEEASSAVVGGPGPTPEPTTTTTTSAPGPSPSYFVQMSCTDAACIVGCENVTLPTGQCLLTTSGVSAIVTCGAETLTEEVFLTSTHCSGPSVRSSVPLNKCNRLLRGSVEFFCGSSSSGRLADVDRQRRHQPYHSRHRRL
#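 Detergent-free condition (0.00005% Triton X-100) in acetate buffer pH 5.5 with DTT. 1.5 nM enzyme and compound were pre-mixed 15 min, then 2 uM Z-FR-AMC substrate added; reaction progress from fluorescence change between first and third reads (60 s).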
# MARV entry inh: qHTS for inhibitors of binding or entry into cells for Marburg Virus; Marburg virus pseudotyped entry inhibition, cell reporter; control for the full effect not named in the record; about a third of the inactives were read at about 46 µM; Potency, µM (titrated, usually from 37.8 µM), without a hit: at the top dose activity change, negative = inhibition, most hits filed as inhibitors; actives 1.8% (n = 300,000); active = well fitted inhibition curve with a large enough effect; inconclusive = small, poorly fitted or top-dose-only effect, or effect the other way; inactive = flat fitted curve, though single readings scatter; tested in HEK293 cells; about a fifth of its hits are not listed in these tables; note: % is set by controls: 0 for no effect and ±100 for the full control effect; luciferase read-out
# Cruzain Triton: qHTS Assay for Promiscuous and Specific Inhibitors of Cruzain (with detergent); Potency, µM, inactives show max response, negative = inhibition, actives largely listed as inhibitors; Cruzipain (Trypanosoma cruzi), P25779; AID 1478, 2009; purified cruzain, Z-FR-AMC fluorescence, 0.01% Triton; actives 0.43% (n = 200,000);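 note: plate controls were neutral wells for no effect and buffer without enzyme for full effect; nearly all actives have a fitted effect of over 40% in size; top concentration of the series not given in the record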
#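 In this qHTS format, compounds are incubated with 1.5 nM cruzain for 15 min at room temperature before 2 uM Z-FR-AMC is added. Release of AMC is followed at 360/450 nm, and progress is taken as the 60 s fluorescence difference.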
# NS1 inh: qHTS Assay for Inhibitors of Influenza NS1 Protein Function | S. cerevisiae slowed by influenza A NS1, growth recovery by OD600 | Potency, µM (doses to about 46.1 µM), for inactives: at the highest dose activity, positive = more growth | actives 0.4% (n = 270,000); active means well fitted rising curve with a large enough effect; inconclusive means small, poorly fitted or top-dose-only effect; inactive means no such curve, though single readings can be large or run the other way; note: nearly all actives have a fitted effect of over 50% in size
#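 A cell-based growth assay was used: compounds that relieve NS1-induced slow growth of budding yeast raise OD600. Assay medium was yeast nitrogen base with ammonium sulphate and -URA supplement, pH 6.0, with 2% galactose.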
# RE007 growth inh: qHTS Assay for Inhibitors of the HIV-1 protein Vpr; actives 0.21% (n = 360,000); Potency, µM (titrated, usually from 92.2 µM), for inactives: top-dose activity change, negative = less growth; S. pombe RE007 Vpr strain, BacTiter-Glo ATP luminescence, 24 h; control for the full effect not named in the record; active = well fitted falling curve with a large enough effect; inconclusive = small, poorly fitted or top-dose-only effect; inactive = no such curve, though single readings can be large or run the other way;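 note: % is set by controls: 0 for no effect and ±100 for the full control effect; nearly all actives have a fitted effect of over 50% in size; the assay follows cell death caused by Vpr and the record does not say whether a fall means rescue or toxicity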
#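 Fission yeast RE007 carrying one integrated HIV-1 vpr copy, seeded at OD 0.01 in PMG+AL medium with 23 nL pinned compound. Grown 24 h at 30 degrees; viability read by BacTiter-Glo luminescence after 5 min.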
# The depositor's hits bear a star; ? = inconclusive; nt = not tested or not shown; [ ] = remark or other dose. Unless noted, calls come from the whole dose curve; as a rule, active = well fitted curve in the direction sought with a large enough effect; inconclusive = small, poorly fitted or top-dose-only effect, or another doubt; inactive = no such curve, though single readings can be large; an effect the other way counts as inactive or inconclusive. Potency is the fitted concentration of half-maximal effect. An unsorted share of the library; any-hit rate near 4.6%.
SMILES,StopGo reporter,SARS PLP yeast,LASV entry inh,Cruzain noTriton,MARV entry inh,Cruzain Triton,NS1 inh,RE007 growth inh
CCOc1ccccc1NC(=O)C1CCN(S(=O)(=O)Cc2ccccc2)CC1,-9%,nt,-19%[46.1 µM],?,?,-11%,nt,nt
CCN1C[C@]2(C)CC[C@H](O)[C@@]34[C@@H]5C[C@@H]6[C@@H](OC)C[C@@](O)(C5[C@H]6O)[C@@H](C[C@@H]23)[C@@H]14,nt,nt,nt,-5%,3%,-2.8%,-1%,nt
S=c1[nH]nc(C2CCCCC2)n1/N=C/c1ccccc1Br,-12%,-6%,13%[46.1 µM],nt,6%[46.1 µM],nt,-8%,-11%
CNC(=O)CSc1nnc(-c2cccs2)o1,10%,-1%,22%,0%,-2%,3.7%,-2%,10%
COc1ccc(-c2cn[nH]c2-c2ccc(OCc3ccccc3)cc2O)cc1OC,?,-3%,?,nt,?,nt,4%,-11%
Nc1ccc(N2CCCCC2)c(S(=O)(=O)Nc2ccccc2Cl)c1,5%,1%,?,nt,?,nt,7%,-4%
CC(C)n1nccc1NC(=O)COC(=O)c1ccc(NC(N)=O)cc1,-2%,-5%,-2%[46.1 µM],nt,4%[46.1 µM],nt,nt,49%
CCN=c1scc(-c2cccs2)n1/N=C/c1cc(OC)ccc1O,-52%,0%,?,-8%,?,-6.7%,-16%,-12%
O=C1CCCCC1Oc1ccc2ccc(=O)oc2c1 (stereo not drawn),7%,0%,-3%[46.1 µM],nt,10%[46.1 µM],nt,0%,2%
CC(=O)CCC(=O)N1CCCC(N2CCN(c3cccc(Cl)c3)CC2)C1 (stereo not drawn),11%,5%,-2%[46.1 µM],nt,4%[46.1 µM],nt,6%,-5%
Cc1cccc(-c2nc3c4ccccc4nc(N4CCN(c5cc(C)ccc5C)CC4)n3n2)c1,11%,nt,nt,22%,3%[46.1 µM],0.0%,nt,nt
Cc1ccc(OCCN2CCNCC2)c([N+](=O)[O-])c1,0%,-33%,-18%,7%,10%,-1.7%,15%,-13%
CCCc1nnc(NC(=O)c2cccnc2)s1,15%,0%,nt,nt,nt,nt,-5%,2%
COC(=O)C1Cc2c([nH]c3ccccc23)C(C(C)C)N1 (stereo not drawn),-4%,-2%,-14%,nt,0%,nt,0%,-23%
CCC(=O)c1cn(Cc2ccc(C#N)cc2)c2ccccc12,?,-8%,-6%,0%,-2%,-1.4%,-3%,51%
O=C(NNC(=S)NC1CCCCC1)c1ccccc1O,7%,?,-23%[46.1 µM],nt,?,nt,nt,-1%
N#CC1=C(N)Nc2nc3ccccc3n2C1c1ccc(Cl)cc1 (stereo not drawn),-5%,-16%,7%,32µM*,3%,-1.2%,1%,9%
CC(=O)c1ccc(N2CCN(CC(=O)Nc3ccc4c(c3)OCCO4)CC2)cc1,0%,-1%,?,nt,?,nt,-20%,-4%
CN(C)CCNC(=S)Nc1cccc(Cl)c1,-18%,?,2%,-8%,?,-1.6%,26%,7%
CN(CCO)c1nc2c(c(=O)n(Cc3ccc(Cl)cc3)c(=O)n2C)n1C,-7%,2%,?,nt,1%[46.1 µM],nt,3%,-2%
Cc1ccc(-n2nc3c(=O)n(CCCC(=O)NCc4cccc(F)c4)nc(C)c3c2C)cc1,-16%,0%,nt,nt,nt,nt,-2%,-4%
CCOC(=O)N1CCc2c(sc3c2c(=O)n(-c2ccc(CC)cc2)c(=O)n3CC(=O)c2ccc(F)cc2)C1,-7%,nt,-1%[46.1 µM],21%,-7%[46.1 µM],-0.3%,nt,nt
Cc1cc(C(=O)N(C)CC(=O)Nc2ccccc2C(F)(F)F)c(C)o1,-18%,0%,0%,-1%,2%,3.6%,5%,1%
COc1ccc(N2CCN(C(=O)CC34CC5CC(CC(C5)C3)C4)CC2)c([N+](=O)[O-])c1,-26%,-72%,?,18%,3%,-6.4%,-1%,13%
COc1cccc(NC(=O)CN(C)C(=O)c2ccccc2-c2nc3ccccc3s2)c1,-13%,0%,-19%,nt,7.1µM*,nt,nt,7%
# Next results:
SMILES,StopGo reporter,SARS PLP yeast,LASV entry inh,Cruzain noTriton,MARV entry inh,Cruzain Triton,NS1 inh,RE007 growth inh
Cc1cc(C(=O)COc2ncnc3sccc23)c(C)n1C,40%[activator],16%,?,-11%,?,-0.1%,-6%,13%
CCn1cc(C(=O)N2CCN(c3ccccn3)CC2)c(=O)c2cc(S(=O)(=O)N3CCC(C)CC3)ccc21,-4%,-1%,5%[46.1 µM],nt,?,nt,nt,-10%
Oc1cc2c(cc1CN1CCN(c3ccccc3F)CC1)OCO2,3%,2%,16%,nt,15%[46.1 µM],nt,15%,-13%
CC1CCc2nc3sc4c(c3c(N)c2C1)CCCC4 (stereo not drawn),-10%,-28%,-7%,?,?,-20%,-33%,4%
Cc1ccc(-c2c[n+]3c(n2-c2ccccc2)CCC3)cc1,?,0%,?,nt,?,nt,2%,-14%
Cc1cc(=O)n(CC(=O)Nc2cccc([N+](=O)[O-])c2)c(-n2nc(C)cc2C)n1,1%,nt,3%[46.1 µM],-13%,nt,-2.4%,nt,nt
COc1cc(CC(=O)N/N=C/c2ccc([N+](=O)[O-])cc2)c([N+](=O)[O-])cc1OC,-23%,-8%,27%,-8%,19%,-2.4%,13%,8%
CC(=O)c1ccc(NC(=S)N2CCCC(C(F)(F)F)C2)cc1 (stereo not drawn),20%,0%,24%,nt,-14%[46.1 µM],nt,nt,-21%
CCC1SC(=Nc2cccc(C)c2)NC1=O (stereo not drawn),14%,1%,11%[46.1 µM],nt,18%[46.1 µM],nt,-2%,-3%
CC[n+]1c(/C=C/c2cc([N+](=O)[O-])ccc2O)ccc2ccccc21,0%,-5%,?,nt,9%[46.1 µM],nt,4%,-20%
CC12CCC3C(CCCC4CC(=O)CCC43C)C1CCC2O (stereo not drawn),?,nt,0%,nt,1%,nt,nt,18%
CC(=O)Nc1ccnc(-c2cccnc2)n1,-7%,-6%,5%,-5%,19%,3.7%,17%,-17%
O=C(c1cc2cc(Cl)ccc2[nH]1)N1CCc2ccccc2C1,38%[activator],-5%,nt,nt,nt,nt,9%,20%
Cc1cccc(NC(=O)c2cccc(N3CCCS3(=O)=O)c2)c1,22%,nt,?,-9%,nt,0.6%,nt,nt
CCOc1ncccc1C(=O)Nc1cc(S(=O)(=O)N2CCOCC2)ccc1N1CCCC1,-19%,-2%,1%,nt,19%,nt,nt,12%
CCC1(C)CC2(CCCN(CCC(=O)c3ccccc3)C2)CCO1 (stereo not drawn),-5%,-1%,2%,nt,?,nt,nt,-16%
COc1ccc(NC(=O)CN2C(=O)COc3ccc(S(=O)(=O)Nc4ccccc4)cc32)cc1,27%,nt,17%[46.1 µM],2%,nt,-4.9%,nt,nt
C[C@@H](O)c1nc2ccccc2n1N,-13%,-4%,2%,-4%,0%,-0.3%,26%,43%
Cc1cc(O)c(C)c(O)c1/C=N/NC(=O)c1cccnc1,36%[activator],0%,?,nt,10µM*,nt,3%,0%
O=C(CCNC(=O)c1ccccc1Cl)NC1=NCCS1,-9%,-1%,17%,nt,11%[46.1 µM],nt,nt,13%
COCCOC(=O)C1=C(C)N=C2SCCC(=O)N2C1c1ccc(OCc2ccccc2)c(OC)c1 (stereo not drawn),-16%,nt,-1%[46.1 µM],?,-8%[46.1 µM],-7.1%,nt,nt
Fc1ccc(C2=CSC3=NCCN23)cc1,-2%,1%,12%,nt,21%[46.1 µM],nt,1%,3%
CCOC(=O)c1c(NC(=S)Nc2ccccc2)sc2c1CCN(CCc1ccccc1)C2,nt,2%,nt,-22%,6%,-6.5%,?,nt
CNC(=S)N(CCc1c(C)[nH]c2ccccc12)Cc1ccco1,-11%,0%,?,nt,?,nt,nt,2%
CSc1ccc(CCNC(=O)c2cc3cc(S(=O)(=O)N4CCCCC4)ccc3n2C)cc1,?,nt,-27%[46.1 µM],?,nt,1.8%,nt,nt
# Additional structures:
SMILES,StopGo reporter,SARS PLP yeast,LASV entry inh,Cruzain noTriton,MARV entry inh,Cruzain Triton,NS1 inh,RE007 growth inh
CCOC(=O)c1cc2c(ccn2-c2ccc(F)cc2)n1CC(=O)N1CCN(C(=O)c2ccco2)CC1,6%,-5%,9.2µM*,?,3%,1.6%,-41%,-1%
Cc1cc(C)nc(-n2nc(C)cc2NC(=O)c2ccc(S(=O)(=O)N3CCOCC3)cc2)n1,8%,?,nt,nt,nt,nt,6%,-7%
O=C(N/C(=C/c1ccc2c(c1)OCO2)C(=O)N1CCOCC1)c1cccs1,44%[activator],1%,-1%,-4%,8%,-0.2%,-4%,-5%
CCCn1c(C(=O)c2ccccc2OC)nc2ccccc21,-15%,-1%,nt,nt,nt,nt,-7%,0%
CC1=CC(C)(C)N(C(=O)CN2C(=O)c3ccccc3C2=O)c2ccccc21,?,2%,-14%,-5%,-9%,-10.0%,-78%,1%
CCCCc1cc(=O)oc2c(CN(CC)CC)c(O)c(Cl)cc12,-17%,0%,13%,?,1%,28µM*,-3%,15%
COCCn1c(SCC(=O)NC(=O)NC(C)C)nc2ccccc21,-15%,0%,4%,4%,0%,-1.9%,6%,10%
CCCCCn1c(Sc2nc3ccccc3s2)nc2c1c(=O)[nH]c(=O)n2C,nt,10%,?,26%,?,2.0%,-42%,11%
Cc1cc(-c2csc(NC(=O)c3ccc(C#N)cc3)n2)c(C)n1Cc1ccccc1,-28%,0%,2%,10µM*,?,-0.9%,17%,-6%
CN(CCO)C(=O)c1cccc2c1-c1ccccc1C2=O,-16%,-3%,21%,-4%,-15%,6.8%,-1%,6%
CN(CC(=O)NCCN1CCN(Cc2ccccc2)CC1)S(=O)(=O)c1cccc2nsnc12,-11%,1%,-4%,-9%,15%,0.0%,1%,-8%
O=C(O)c1ccc(NC(=O)C2C3CCC(O3)C2C(=O)O)cc1 (stereo not drawn),8%,3%,nt,nt,nt,nt,10%,2%

# Screens as filed in PubChem BioAssay.
